BJeLR lethal – kills HRASV12-expressing BJeLR cells. BJeLR (HRASV12) viability, CellTiter-Glo ATP luminescence, 48 h; reference of the scale not given here. inhibition, % (no concentration beside the values). hit rate 0.17% among 300,000;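 active means replicate mean above 50%; inconclusive means above 50% but judged a plate artefact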;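 further: 50 nL library stock added to about 25 µL; numbers are from one replicate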
PrP 5UTR inh – suppresses PrP 5' UTR mRNA reporter expression. inhibition, % (test concentration not listed). AID 488862. cell-based PrP 5' UTR mRNA reporter, plate reader. hit rate 0.35% among 340,000;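 active means every replicate at 50% or more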;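 further: 0 = median of the neutral control wells; tested in H4 reporter cells; numbers are from one replicate; inactives centre near -14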
Sa ugtP lethal – growth inhibition of S. aureus ugtP deletion strain | S. aureus RN4220 ugtP deletion, OD600 growth, 16 h; some inactives read as strong as hits | growth inhibition, % (concentration not given with the values) | hit rate 0.54% among 330,000;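 active means z-score under -3 and OD600 up to 0.15 on both plates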;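 further: plate controls were untreated wells for no effect and antibiotic for full effect; wells of about 80 µL received 100 nL stock; the first replicate is given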
Mtb hypoxia inh – Mtb hypoxia fluorescent reporter inhibition; M. tuberculosis hypoxia-regulated fluorescent reporter, fluorescence; fluorescence inhibition, % (no concentration beside the values); hit rate 0.1% among 300,000; AID 1159583;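 active means 35 to 45% if threefold the growth effect, above 45% if 1.5-fold the growth effect; inactive means the rest, general growth blockers included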;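 further: wells of about 50 µL received 100 nL stock; 0% = vehicle wells and 100% = reference inhibitor wells; whole bacteria with a GFP reporter of the hypoxia response; strong numbers were not always called active; many hits fall short of the cut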
Sa RN4220 lethal – S. aureus RN4220 growth inhibition; OD600, 16 h; inhibition, % (concentration not given with the values); hit rate 0.33% among 330,000;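 active means z-score of -3 or lower and OD600 up to 0.18 on both plates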;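 further: plate controls were untreated cells for no effect and reference antibiotic for full effect; stock transfer was 100 nL into about 80 µL; one replicate is shown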
Bead autofluor – counter-screen for toxin protease inhibitors: compound fluorescence. fluorescence intensity (test concentration not listed). compound autofluorescence counterscreen, microsphere flow cytometry; hits give high values. hit rate 3.1% among 360,000;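 active means at least 3 SD above the mean of all compounds, about 16000 in these data; inconclusive means too few beads counted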;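 further: 100 nL of 1 mM stock went into each well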
Mtb hypoxia inh growth – further read-out of Mtb hypoxia inh, marked with its call; growth inhibition, %; measured here: M. tuberculosis growth (absorbance);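 0% = vehicle and 100% = reference antibiotic; read after six days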
An asterisk follows results filed as active; ? = inconclusive; nt = no result given.

no.	mol	BJeLR lethal	PrP 5UTR inh	Sa ugtP lethal	Mtb hypoxia inh	Mtb hypoxia inh growth	Sa RN4220 lethal	Bead autofluor
1	Cc1nn(Cc2ccccc2)c(C)c1C(=O)NCC(c1cccs1)N1CCOCC1 (stereo not given)	2	-19	2	3	1	2.3	12320
2	O=C(NCc1ccncc1)C(=O)N/N=C/c1cccnc1	-1	1	nt	nt	nt	nt	3721
3	CCC(=O)Nc1ccc(-c2nc(-c3ccccc3)n(CC(=O)N3CCCCC3)n2)cc1	12	-9	-5	5	1	-4.9	3019
4	CCc1ncc(C(O)c2cccc3ccccc23)n1C (stereo not given)	-5	-7	13	7	1	2.6	4265
5	CC(C)(C)c1cc(CN2CCC(O)CC2)cc(C(C)(C)C)c1O	-16	-34	-1	16	12	3.8	9778
6	OC1CCN(c2ncnc3nc[nH]c23)CC1	4	-7	9	4	6	3.4	5542
7	S=C(NCCc1ccccc1)N/N=C/c1ccc(Cl)cc1	0	-50	nt	nt	nt	nt	6392
8	O=C(Cn1c(-c2cncs2)nc2ccccc21)NCCc1ccccc1	-4	-17	4	6	12	6.0	5875
9	O=C(O)c1cc(S(=O)(=O)N2CCN(C(c3ccccc3)c3ccccc3)CC2)ccc1Cl	-2	nt	14	0	-5	2.7	4294
10	COc1ccccc1/C=C/c1ccc2cccc(O)c2n1	10	-50	17	-10	3	11	3712
11	Cc1cc(C)c[n+](-c2[nH]c(=O)sc2C=NN=C(N)[S-])c1	nt	nt	7	3	-3	5.6	nt
12	CCOC(=O)Cc1cnc(NC(=O)CSc2nc(N)cc(N)n2)s1	-13	-15	4	11	-1	-0.3	4184
13	CC(=N/N=C1/NC(=O)C(CC(=O)Nc2ccccc2F)S1)C1CCCCC1 (stereo not given)	nt	nt	-3	5	8	3.9	nt
14	O=C(O)c1ccc(NCc2cccs2)cc1	-8	-30	2	11	3	2.4	3593
15	Cc1cccc(NC(=O)C2CCCN(S(=O)(=O)c3ccc4[nH]c(=O)ccc4c3)C2)n1 (stereo not given)	11	-13	2	11	14	1.5	5759
16	CCOC(=O)N1CCN(S(=O)(=O)c2ccc(C)cc2)C1c1ccccc1 (stereo not given)	1	-13	-3	4	6	3.9	8247
17	COC(=O)c1ccccc1NC(=O)COC(=O)c1ccccc1N=Nc1ccc(N(C)C)cc1	-10	-50	-4	-5	1	2.9	1921
18	CC(SCc1ccccc1)C(=O)NN=C1CCN(C)CC1 (stereo not given)	0	-18	-2	-5	-9	-4.3	6882
19	CCOC(=O)NC(Nc1ncccn1)(C(F)(F)F)C(F)(F)F	nt	-7	12	nt	nt	-1.4	5006
20	COCCNC(=O)c1c(CSc2ccccc2)noc1C(=O)NCc1ccccc1	-1	-20	3	-2	6	6.2	3218

Profiles as entered above:
Cc1cc(C)c[n+](-c2[nH]c(=O)sc2C=NN=C(N)[S-])c1 reads BJeLR lethal: nt; PrP 5UTR inh: nt; Sa ugtP lethal: 7; Mtb hypoxia inh: 3; Mtb hypoxia inh growth: -3; Sa RN4220 lethal: 5.6; Bead autofluor: nt
O=C(NCc1ccncc1)C(=O)N/N=C/c1cccnc1 reads BJeLR lethal: -1; PrP 5UTR inh: 1; Sa ugtP lethal: nt; Mtb hypoxia inh: nt; Mtb hypoxia inh growth: nt; Sa RN4220 lethal: nt; Bead autofluor: 3721

The listing picks up, starting 6 compounds before the break.
no.	mol	BJeLR lethal	PrP 5UTR inh	Sa ugtP lethal	Mtb hypoxia inh	Mtb hypoxia inh growth	Sa RN4220 lethal	Bead autofluor
15	Cc1cccc(NC(=O)C2CCCN(S(=O)(=O)c3ccc4[nH]c(=O)ccc4c3)C2)n1 (stereo not given)	11	-13	2	11	14	1.5	5759
16	CCOC(=O)N1CCN(S(=O)(=O)c2ccc(C)cc2)C1c1ccccc1 (stereo not given)	1	-13	-3	4	6	3.9	8247
17	COC(=O)c1ccccc1NC(=O)COC(=O)c1ccccc1N=Nc1ccc(N(C)C)cc1	-10	-50	-4	-5	1	2.9	1921
18	CC(SCc1ccccc1)C(=O)NN=C1CCN(C)CC1 (stereo not given)	0	-18	-2	-5	-9	-4.3	6882
19	CCOC(=O)NC(Nc1ncccn1)(C(F)(F)F)C(F)(F)F	nt	-7	12	nt	nt	-1.4	5006
20	COCCNC(=O)c1c(CSc2ccccc2)noc1C(=O)NCc1ccccc1	-1	-20	3	-2	6	6.2	3218
21	O=C(NC12CC3CC(CC(C3)C1)C2)c1ccc(-c2cccc(Cl)c2)o1	0	-63	-32	-5	5	-7.3	2700
22	COc1ccc2cc(C3(C)NC(=O)N(CC(=O)NCc4ccco4)C3=O)ccc2c1 (stereo not given)	-4	2	-7	6	6	1.7	21910*
23	O=C(Nc1nc(-c2ccccc2)c(-c2ccccc2)s1)c1ccc(S(=O)(=O)N(CCCl)CCCl)cc1	-6	-12	11	-2	-4	5.0	8681
24	C/C(=N\n1c(C)nc2ccccc2c1=O)c1ccc(C)o1	-10	-9	nt	nt	nt	nt	4149
25	CCCC12CN3CCN(CC(C3)/C1=N\NC(=O)c1ccc(F)cc1)C2	-2	-17	nt	nt	nt	nt	4353
26	CCN(CC(=O)NC1CCS(=O)(=O)C1)c1nc(-c2ccccc2)nc2ccccc12 (stereo not given)	1	-25	-1	5	1	-0.2	3238
27	COC(=O)c1cccc(NC(=S)Nc2cccc(Cl)c2Cl)c1	-4	-20	-9	0	12	-5.5	2680
28	COc1ccc(OCC(=O)NCCNC(=O)c2ccncc2)cc1	-1	-1	-2	-4	-7	3.2	4641
29	O=C(c1ccc(N2CN(C(=O)c3ccco3)c3nc4ccccc4nc32)cc1)N1CCOCC1	0	-6	-1	-10	7	-0.5	8445
30	CCCC=NNC(=O)C1COc2ccccc2O1 (stereo not given)	nt	nt	6	13	8	5.3	nt
31	O=C(C(Cc1ccc(Cl)cc1)NS(=O)(=O)c1ccccc1)N1CC[C@@]2(O)CCCCC2C1 (stereo not given in full)	nt	nt	8	5	8	3.8	nt
32	Cc1ccc(S(=O)(=O)N(C)C)cc1NC(=O)COC(=O)Cc1ccccc1F	8	-13	6	0	3	2.8	nt
33	COc1ccc(-c2nnc(SCC(=O)NCc3ccco3)o2)cc1	21	-38	8	17	4	4.2	11192
34	Cc1cc(C)n(-c2ccc(C(=O)N3CCc4ccccc43)cc2)n1	-6	-43	-4	10	7	1.5	4792
35	CC(=O)N1CCN(S(=O)(=O)c2cccc(C(=O)NNC(=O)Cn3ccc(C(F)(F)F)n3)c2)CC1	6	-17	7	9	-3	2.2	?
36	CSc1ccccc1NC(=O)CN(C)CC(=O)Nc1ccc(Cl)cc1F	-30	-6	-1	-2	5	6.3	2113
37	CCCCN1C(=O)/C(=C2\SC(N3CCCCC3)=NC2=O)c2ccccc21	6	-84	-13	23	19	3.3	23186*
38	Cc1cc(NC(=O)COC(=O)c2c(C)c(C)c(C)c(C)c2C)no1	nt	8	-6	23	9	8.4	6332
39	Cc1cccc(NC(=O)c2ccc(C(=O)Nc3cccc(C)c3)nc2)c1	1	-12	8	10	14	-1.4	2599
40	NC(=O)CCn1cnc2ccccc21	-2	-26	-1	8	14	0.3	4906
41	O=C(CSc1nc2ccccc2[nH]1)NN=Cc1ccco1	nt	nt	0	4	21	-0.3	nt
42	C(=C\c1cccc2ccccc12)/c1nnc(-c2cccs2)o1	7	-39	-26	-2	-15	-1.9	8799
43	Cc1ccc(C)c(N(C(=O)c2nsc(Cl)c2Cl)C(C(=O)NC2CCCC2)c2ccc(O)cc2)c1 (stereo not given)	-7	-6	9	9	5	-0.8	2565
44	CC(C)C(NC(=O)c1ccccc1)C(=O)N1CCN(C/C=C/c2ccccc2)CC1 (stereo not given)	nt	-11	4	8	10	5.5	5361
45	COC(=O)CN(c1ccccc1)S(=O)(=O)c1ccc(F)cc1	-6	-22	3	-14	-6	3.6	2778
46	CCOCCC(=O)Nc1nnc(CCc2ccccc2)s1	-3	6	-3	-4	-5	0.6	nt
47	CSc1ccccc1NC(=O)CN(C)C(C)C(=O)NCc1ccc2c(c1)OCO2 (stereo not given)	nt	-18	10	0	-3	9.3	3633
48	O=C(OCC(=O)N1CCCC1=O)c1cc(S(=O)(=O)N2CCOCC2)ccc1Cl	0	-22	5	9	2	7.1	5468
49	O=c1c2nnn(Cc3ccccc3)c2ncn1-c1ccccc1	2	-22	3	nt	nt	9.5	3968
50	Cc1nn2c(COc3ccc(NC(=O)C(C)C)cc3)nnc2c2ccccc12	-11	-29	4	9	11	9.5	3725
51	Cc1ccc(NC(=O)c2cccc(S(=O)(=O)N3CCCCC3)c2)cc1	-9	-26	4	7	8	2.8	3550
52	CCOc1cccc(OCCCCN2CCCCC2)c1	1	-26	3	8	1	3.4	10400
53	COc1cc(NC(=O)CSc2nnc(C)s2)cc(OC)c1	-2	-12	-6	16	11	-8.3	2952
54	COc1ccc(CNC(=O)C2CCCN2)cc1OC (stereo not given)	0	-36	1	10	1	5.5	3177
55	Cc1cc(C)c2nc(SCc3ccc([N+](=O)[O-])cc3)nc(C)c2c1	2	-10	1	3	6	5.0	20592*
56	COc1ccc(N2C(=O)N3C(c4ccc(Cl)cc4)C4C(=O)N(C5CCCCC5)C(=O)C4[C@]3(C)C2=O)cc1 (stereo not given in full)	nt	nt	-2	-4	-3	2.5	nt
57	OC(c1ccccc1)(c1ccccc1)C1CCN(C(=S)NCCc2ccccc2)CC1	-17	-35	1	9	4	-6.3	4824
58	COc1ccc(N=C2NC(=O)/C(=C/c3ccc(O)c(OC)c3)S2)cc1	-8	-19	-8	11	3	17	2630
59	O=S(=O)(c1ccc(Cl)cc1)N1CC1c1ccccc1 (stereo not given)	-6	-28	2	-4	-1	-3.8	1989
60	Cc1ccc(S(=O)(=O)N2CCCC2)cc1C(=O)NC1CCCCC1	3	-29	9	5	-3	3.6	4333
61	O=C(c1cccc(C(=O)N2CCC(O)(c3ccccc3)CC2)c1)N1CCC(O)(c2ccccc2)CC1	4	nt	0	3	1	2.9	nt
62	COc1ccc(NC(=O)C2CCCN2C(=O)NC2CCCCC2)c(OC)c1 (stereo not given)	-5	-9	-19	1	0	3.0	5325
63	CCc1ccc(CNC(=O)C2CCCN(S(=O)(=O)N3CC(C)CC(C)C3)C2)cc1 (stereo not given)	1	-21	-3	-4	-13	-1.6	nt
64	CC(C)(O)CCC(C)(C)O	nt	-12	5	8	7	5.8	4135
65	Cn1c(=O)[nH]c(=O)c2c1nc(N1CCN(CCO)CC1)n2Cc1ccccc1	6	-9	nt	nt	nt	nt	3848
66	O=C(c1ccccc1)c1ccc2ccccc2n1	2	-41	1	20	16	4.2	4628
67	O=[N+]([O-])c1ccc2c(c1)CNc1ccccc1O2	-7	-11	2	15	-3	5.7	2195
68	COc1c(OC(C)=O)ccc(/C=N\NC(=O)c2ccc(Br)cc2)c1[N+](=O)[O-]	5	-33	nt	nt	nt	nt	4124
69	Nc1[nH]nc2nc(NCc3ccccc3)c3c(c12)CCN(Cc1ccccc1)C3	12	2	9	nt	nt	7.0	2651
70	CCOc1ccc(Cl)cc1CNCCc1ccccc1F	-3	-5	0	0	-6	0.7	5259
71	CN1CCN(C(=O)c2cc(Cl)cc(Cl)c2NC(=O)c2ccco2)CC1	-4	-19	10	12	3	3.1	2316
72	CCC(=O)c1cn(Cc2ccccc2C#N)c2ccccc12	-6	-15	-8	1	4	4.2	23775*
73	CC(C)(C)N/N=C/c1c(O)n(-c2ccc(Cl)cn2)c(=O)c2ccccc12	0	0	-6	-2	-5	1.8	2197
74	O=C(COC(=O)COc1ccccc1)NCCc1ccccc1	-4	-107	5	9	0	3.4	?
75	COc1ccc(OC)c(C2NC(=O)NC(C)=C2C(=O)OC2CCCCC2)c1 (stereo not given)	-9	-18	7	17	1	8.7	4354
76	CC(=O)Oc1c(Sc2ccccc2[N+](=O)[O-])c(C)nn1C(C)(C)C	nt	-3	2	6	2	6.2	3253

High-throughput results deposited in PubChem by several laboratories.
